# Bioassay records (PubChem)
# CtBP-E1A blk: qHTS Assay for Inhibitors of the CtBP/E1A Interaction; CtBP / adenovirus E1A interaction (AlphaScreen); AlphaScreen GST-E1A/His-CtBP binding, 1536-well; active compounds read low; control for the full effect not named in the record; activity change, % (no concentration beside the values); 340,000 compounds, 0.49% hits; in the data active means activity change below about -65%; inconclusive means about -30% to -65%; inactive means above about -30%; also: % is scaled to controls: 0 for no effect and ±100 for the full control effect
#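 In 5 uL wells, 23 nL compound meets equimolar GST-E1A and His-CtBP (5X stock 125 nM each) for 2 h, 37 °C. Beads (5X, 50 ug/mL) then 1 h, 37 °C, dark.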
# Sfp PPTase inh: qHTS Assay for Inhibitors of Bacillus subtilis Sfp phosphopantetheinyl transferase (PPTase) | 310,000 compounds, 3.5% hits | Potency, µM, inactives show max response, negative = inhibition, most hits filed as inhibitors | Biochemical Sfp PPTase activity, qHTS | AID 1490, 2009; active = well fitted inhibition curve with a large enough effect; inconclusive = small, poorly fitted or top-dose-only effect, or another doubt; inactive = no such curve, though single readings can be large or run the other way;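 also: the enzyme is Sfp with the accession as filed and its product quenches rhodamine fluorescence; potency is read from the fitted curve at half-maximal effect; 0% = enzyme reaction without inhibitor and -100% = no enzyme wells; top concentration of the series not given in the record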
#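 Step 1, compound plus 15 nM Sfp-PPTase, 15 min, room temperature. Step 2, add rhodamine-CoA (5 uM) and BHQ-2-YbbR (12.5 uM). Step 3, read 525/598 nm fluorescence at 0 and 30 min.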
# gsp antagonist: qHTS for Antagonists of gsp, the Etiologic Mutation Responsible for Fibrous Dysplasia/McCune-Albright Syndrome: qHTS; gsp-mutant cells, cAMP HTRF, 30 min; control for the full effect not named in the record; Potency, µM (titrated, usually from 76.9 µM), for the others: at the highest dose activity change, negative = inhibition, actives largely listed as inhibitors; 340,000 compounds, 0.4% hits; AID 624288, 2012; active = falling curve of any shape with a large fitted effect; inconclusive = falling curve, mostly with a smaller effect; inactive = flat or rising curve; cell line not stated here;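 also: intracellular cAMP measured with PDE inhibitor Ro 20-1724 present during compound exposure; potency is read from the fitted curve at half-maximal effect; % is scaled to controls: 0 for no effect and ±100 for the full control effect; nearly all actives have a fitted effect of over 65% in size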
#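 G418-selected cells were plated in DMEM/10% FBS for 16-24 h at 37C, then treated with compounds plus the PDE inhibitor […] (300 uM solution added) for 30 min at 37C. Intracellular cAMP was measured by HTRF after 30 min lysis at room temperature.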
# Menin-MLL FL inh: qHTS Assay for Inhibitors Targeting the Menin-MLL Interaction in MLL Related Leukemias: Competition With Fluorescein Labeled MLL-derived Peptide. Fluorescence polarization, fluorescein-MLL peptide displacement from menin. FP activity change, % at 61.4 µM. 290,000 tested, under 10 active. AID 1766, 2009; inconclusive = falling polarisation curve, or a change in total fluorescence; inactive = total fluorescence flat and polarisation flat or rising; no compound was filed as active; the % refers to the polarisation; negative = inhibition;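 also: % of control where 0% means no effect; inhibitors lower the polarisation; unlabelled MLL peptide was the positive control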
# TRPV1 potentiator: HTS Assay for Compounds that Act as Potentiators of the Vanilloid Receptor 1; TRPV1-expressing cells, Fluo-8 calcium influx, capsaicin EC20 potentiation; host cell line not named in the record; control for the full effect not named in the record; potentiation, % at 8.33 µM; Transient receptor potential cation channel subfamily V member 1 (Homo sapiens), Q8NER1; 320,000 compounds, 0.02% hits; active means potentiation above 80%; inconclusive means 30% to 80%; inactive means below 30%; also: 0% is about no effect
# Target sequence (Q8NER1 whole entry, looked up): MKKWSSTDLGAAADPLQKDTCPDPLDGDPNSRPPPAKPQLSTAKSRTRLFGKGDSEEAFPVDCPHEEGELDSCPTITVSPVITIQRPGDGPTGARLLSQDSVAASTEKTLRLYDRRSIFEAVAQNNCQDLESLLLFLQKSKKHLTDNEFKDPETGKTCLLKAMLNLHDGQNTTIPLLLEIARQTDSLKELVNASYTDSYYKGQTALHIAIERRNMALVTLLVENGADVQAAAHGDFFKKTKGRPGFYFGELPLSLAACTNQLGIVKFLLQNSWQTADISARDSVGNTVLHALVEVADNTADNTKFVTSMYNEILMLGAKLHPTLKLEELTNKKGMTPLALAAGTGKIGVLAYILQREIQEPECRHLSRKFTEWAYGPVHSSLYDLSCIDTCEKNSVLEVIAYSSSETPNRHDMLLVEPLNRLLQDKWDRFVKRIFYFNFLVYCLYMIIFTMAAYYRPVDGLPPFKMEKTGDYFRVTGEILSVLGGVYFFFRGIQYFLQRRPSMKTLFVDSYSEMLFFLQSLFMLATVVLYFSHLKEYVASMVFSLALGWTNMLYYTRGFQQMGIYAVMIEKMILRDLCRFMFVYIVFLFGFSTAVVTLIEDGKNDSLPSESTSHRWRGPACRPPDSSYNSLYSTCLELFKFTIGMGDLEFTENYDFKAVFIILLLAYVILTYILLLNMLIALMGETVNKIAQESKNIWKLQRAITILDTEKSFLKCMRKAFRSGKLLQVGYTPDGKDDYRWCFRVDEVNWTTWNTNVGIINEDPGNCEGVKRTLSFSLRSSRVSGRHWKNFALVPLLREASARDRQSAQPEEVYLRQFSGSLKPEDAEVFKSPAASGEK
#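 TRPV1-expressing cells were cultured overnight at 35.5C and loaded with Fluo-8 calcium dye for 40 to 90 min at room temperature. After a 10 s baseline, compound was added and calcium influx was read kinetically for 3 min (ex 480/em 520 nm).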
# gsp agonist: qHTS for Agonist of gsp, the Etiologic Mutation Responsible for Fibrous Dysplasia/McCune-Albright Syndrome: qHTS; gsp mutant cells, cAMP HTRF, 30 min; control for the full effect not named in the record; Potency, µM (doses to about 76.9 µM), inactives show top-dose activation (cAMP increase), most hits filed as activators; 340,000 compounds, 0.13% hits; AID 624287, 2012; active = well fitted activation curve with a large enough effect; inconclusive = small, poorly fitted or top-dose-only effect, or another doubt; inactive = no such curve, though single readings can be large or run the other way; cell line not stated here;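 also: phosphodiesterase inhibitor Ro 20-1724 added with compounds to block cAMP breakdown; potency is read from the fitted curve at half-maximal effect; nearly all actives have a fitted effect of over 60% in size; about a fifth of the inactives were tested at one dose only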
#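 Cells stably selected in G418 were plated at 2000/well, grown 16-24 hr, then given compounds in DMSO with the PDE inhibitor […] (300 uM solution added) for 30 min at 37C; cAMP was read by HTRF.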
# ClpP mod: qHTS Assay for Activators of ClpP; Potency, µM (top dose mostly 57.5 µM), for inactives: top-dose activity change, negative = active; 340,000 compounds, 1.9% hits; purified B. subtilis ClpP, FRET peptide cleavage, 20 min; active = well fitted falling curve with a large enough effect; inconclusive = small, poorly fitted or top-dose-only effect; inactive = no such curve, though single readings can be large or run the other way; also: potency is read from the fitted curve at half-maximal effect; the source files actives as falling curves though it sought activators and does not explain the sign; nearly all actives have a fitted effect of over 65% in size; many hits overshoot -100%
# Target sequence (P80244 whole entry, looked up): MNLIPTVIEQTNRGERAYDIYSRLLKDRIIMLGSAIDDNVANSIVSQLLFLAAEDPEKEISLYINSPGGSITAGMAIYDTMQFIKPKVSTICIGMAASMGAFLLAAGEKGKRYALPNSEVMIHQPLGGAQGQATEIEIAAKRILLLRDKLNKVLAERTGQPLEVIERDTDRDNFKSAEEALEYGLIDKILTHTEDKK
#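 FRET quenching reversal measured ClpP activation: 10 microg/mL B. subtilis ClpP at pH 8 with the FRET-FV decapeptide, read at 430 nm after 320 nm excitation. The 20-min minus 0-min signal was scaled between DMSO/no-enzyme wells and ADEP (5.8 microM final).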
# * = called active by the depositor; ? = inconclusive; . = no result given; [ ] = remark or other dose.
# A first look:
SMILES,CtBP-E1A blk,Sfp PPTase inh,gsp antagonist,Menin-MLL FL inh,TRPV1 potentiator,gsp agonist,ClpP mod
O=C(CSc1nnc(SCc2ccc(Cl)cc2)s1)N/N=C/c1ccccc1C(=O)O,-24,12%,7%,1.4,11,-5%,-2.5%
COc1ccnc(Oc2ccc(F)cc2)c1C(=O)N/C=N/OCc1ccc(F)cc1Cl,-1,5%,-3%,-2.7,29,-45%[inhibitor],0.3%

# The listing (from the top)
SMILES,CtBP-E1A blk,Sfp PPTase inh,gsp antagonist,Menin-MLL FL inh,TRPV1 potentiator,gsp agonist,ClpP mod
O=C(CSc1nnc(SCc2ccc(Cl)cc2)s1)N/N=C/c1ccccc1C(=O)O,-24,12%,7%,1.4,11,-5%,-2.5%
COc1ccnc(Oc2ccc(F)cc2)c1C(=O)N/C=N/OCc1ccc(F)cc1Cl,-1,5%,-3%,-2.7,29,-45%[inhibitor],0.3%
CN(CCC#N)Cc1cc(=O)oc2ccc3ccccc3c12,-9,0%,-1%,-1.3,-5,25%[15.4 µM],.
Clc1ccc2nc(-c3ccc4c(c3)OCO4)cn2c1,-5,10%,6%,0.7,-7,-7%[15.4 µM],.
COc1ccc(/C=C/C(=O)c2sc(-c3ccc(Cl)cc3)nc2C)cc1,.,11%,.,-2.0,7,.,.
CCN1C(=O)[C@@H]2[C@@H](c3ccc(-c4ccc(C(C)=O)cc4)cc3)N3CCCC[C@@]3(C(=O)OC)[C@@H]2C1=O,-2,.,-18%,.,19,3%,-0.2%
COc1cccc(-c2c(-c3cc(OC)cc(OC)c3)n(C)c3ccc(-c4ccc(OC)nc4)cc23)c1,3,.,-3%,.,-2,.,3.9%
CCC(C)(C)C1CCc2[nH]nc(C(=O)NCCN3CCOCC3)c2C1 (stereo not given),-1,.,5%,.,9,-48%[inhibitor],-3.0%
COc1ccc(NC(=O)NNC(=O)c2ccc(-c3ccccc3)cc2)c(OC)c1,0,-2%,-21%,2.5,?,-9%,0.9%
CC(=O)c1cc2c(cc1NC(=O)c1cc3nc(C(C)C)cc(C(F)(F)F)n3n1)OCO2,-8,11%,1%,2.8,8,0%,6.9%
Cc1ccc(S(=O)(=O)N/N=C/c2ccc(O)cc2O)cc1[N+](=O)[O-],-19,50µM*,1%,2.6,0,0%[15.4 µM],.
CC1(C)CC2CN(C(=O)Cc3ccccc3)C(C)(C2)C1 (stereo not given),.,-29%,-24%,-1.5,-16,22%,1.4%
CCN(c1ccccc1)S(=O)(=O)c1cccc(C(=O)N(C)CCOc2ccccc2)c1,-3,.,-11%,.,-9,-53%[inhibitor],-1.8%
CC(=O)N(Cc1ccccc1)c1ccccc1C(=O)O,7,24%,13%,9.7,-4,0%[15.4 µM],.
CCCCc1n[nH]c2c1C(=O)CC(C)(C)C2,16,16%,2%,2.4,2,5%,-0.6%
CCc1n(CC(O)COC2CCCCC2)c2ccccc2[n+]1C (stereo not given),-4,-13%,6%,1.4,20,27%,-0.4%
COc1ccc(CNC(=O)c2nnn(-c3cccc(C(F)(F)F)c3)c2N)cc1,-12,13%,-2%,-5.5,3,13%[15.4 µM],-1.3%
COc1cccc(C(=O)Nc2cccc(-c3ccc4nncn4n3)c2)c1OC,-26,12%,3%,-2.5,5,30%,.
Cc1ccc(C2=NN(C(=O)CCC(=O)O)C(c3ccc4c(c3)OCO4)C2)cc1 (stereo not given),11,14%,?,?,7,2%,-1.1%
CC(c1ccco1)N(C(=O)c1cccs1)c1ccccn1 (stereo not given),3,5%,9%,0.9,8,-1%,-1.8%
CCCCN(C(=O)c1ccc2c(c1)OCO2)c1ccccc1,-4,-15%,-5%,2.4,-6,8%[15.4 µM],.
CCSCCc1nnc(NC(=O)Nc2cccc(C(F)(F)F)c2)s1,-1,23%,-25%,3.0,-2,-20%,0.2%
CCN(CC)C(=O)n1cnc(-c2ccccc2)c1-c1ccccc1,6,-9%,-6%,7.9,-18,?,-1.0%
CCS(=O)(=O)c1nc(S(=O)(=O)c2ccc(Cl)cc2)c(NCCN2CCOCC2)s1,1,15%,8%,1.1,-8,?,0.7%
CC(C(=O)OCc1nnc(-c2ccccc2)o1)N1C(=O)C2CCCCC2C1=O (stereo not given),.,11%,1%,1.9,-1,-2%,-3.6%
O=C(Cn1cc2c(n1)CCCCC2)Nc1ccccc1Br,.,4%,6%,2.3,-9,?,0.9%
O=C(O)c1ccc(-n2nnnc2Oc2ccccc2C(=O)N2CCOCC2)cc1,2,8%,-7%,8.3,14,-24%,-4.5%
Cc1ccc(NC(=S)NNc2ncc(C(F)(F)F)cc2Cl)cc1,-11,13%,4%,1.9,-18,-4%[15.4 µM],-2.0%
O=C(O)c1ccc2c(=O)[nH]c(CCl)nc2c1,-15,10%,9%,-3.3,8,3%[15.4 µM],-0.7%
Cc1ccc(CSCCNS(C)(=O)=O)cc1,-1,12%,0%,-6.1,3,-3%,1.4%
COc1cc2c(cc1NC(=O)Nc1ccc(C)cc1)oc1ccccc12,-3,?,-22%,2.7,-1,-35%[inhibitor],35µM*
NS(=O)(=O)c1cccc(NC(=O)Cn2nc(C(=O)O)c3ccccc3c2=O)c1,0,18%,10%,-6.8,4,?,.
CCCOc1ccccc1C1NC(=O)NC(C)=C1C(=O)OCCOCC (stereo not given),-2,21%,1%,7.6,5,-1%,-2.1%
O=C(Nc1nc(C2C3CC4CC(C3)CC2C4)cs1)c1cc2cc([N+](=O)[O-])ccc2oc1=O (stereo not given),11,-2%,9%,3.4,-11,-29%,-3.6%
O=C(CCc1nc2ccccc2c(=O)[nH]1)Nc1cccc(S(=O)(=O)N2CCCCC2)c1,-2,.,-5%,.,14,-1%[15.4 µM],-4.4%
c1ccc(CCCNCCCn2cnc3c(OCc4ccccc4)ncnc32)cc1,-6,.,-2%,.,.,.,-1.5%
COc1ccc(CCCc2nnc(SCC(=O)Nc3ccc(OC)cc3)o2)cc1,2,3%,-4%,2.4,12,0%,-2.9%
Cc1ccc(NC(=O)CCC(=O)c2ccc(F)cc2)cc1Cl,7,14%,6%,0.7,-8,-18%,25µM*
CS(=O)(=O)N(CC(=O)Nc1ccc(F)cc1)C1CCCCC1,-5,4%,10%,-3.1,-4,-2%[15.4 µM],.
COCCOC(=O)/C=C1/NC(=O)CS1,4,16%,2%,0.0,-11,1%,1.4%
O=S(=O)(Nc1cccc(-c2nc3cccnc3s2)c1)c1cccs1,?,23%,2%,0.9,6,-26%[15.4 µM],.
O=C(CCN1CCN(c2ccccc2F)CC1)Nc1ccccc1F,-2,9%,6%,-0.2,-11,0%,16µM*
COc1ccc(S(=O)(=O)N2CCC(N3CCN(Cc4ccccc4)CC3)CC2)cc1,2,?,-1%,-2.1,?,-12%,.
Cn1c(=O)c2c(ncn2CC(=O)OCC(=O)Nc2ccccc2)n(C)c1=O,7,8%,-2%,1.7,?,?,.
CCOC(=O)CN1C(=O)S/C(=C\c2ccc3c(c2)OCO3)C1=O,.,12%,-3%,2.6,-7,1%,-2.2%
Cc1ccc(OCc2ccoc2C(=O)O)cc1C,4,12%,-11%,1.1,-2,-20%,-2.0%
Cc1cc(C)n(-c2ccc(C(=O)Nc3cccc(S(=O)(=O)N4CCCC4)c3)cc2)n1,?,8%,-18%,-0.5,7,-17%,.
Cc1ccccc1OCCN(C#N)c1nc(N(C)C)nc(N(C)C)n1,-10,-7%,-28%,3.0,-6,8%[15.4 µM],-1.3%
COc1ccc(OC)c(S(=O)(=O)N2CCCC2C(=O)N2CCc3ccccc3C2)c1 (stereo not given),-2,21%,-25%,0.6,4,2%[15.4 µM],.
O=C(CCNS(=O)(=O)c1ccccc1)N1CCCCCCC1,11,.,5%,.,1,2%[15.4 µM],.
COC(=O)[C@@H]1CCCN1C(=O)c1ccc(OC2CCN(Cc3ccccn3)CC2)cc1,-11,1%,-16%,-5.8,-5,8%,-2.9%
Cc1cc(C(=O)Nc2cc(Br)ccc2O)on1,-19,0%,-6%,-0.2,-9,24%,-0.2%
N#Cc1c(NC(=O)CSc2n[nH]c(Cc3ccccc3)n2)oc(-c2ccccc2)c1-c1ccccc1,-16,1%,-25%,4.1,12,-5%,-16%
Cc1cc(C(=O)N2CCN(c3ccccc3O)CC2)c(C)o1,3,.,-13%,.,-13,-23%,-1.5%
CC(=O)c1cccc(N=Nc2c(-c3ccccc3)[nH]n(-c3ccccc3)c2=O)c1,.,?,-1%,0.8,-2,0%[15.4 µM],.
Cc1cccc(-c2nnc(SCc3nc4ccccc4[nH]3)n2Cc2ccco2)c1,-6,12%,4%,4.5,-3,?,-1.4%
Cc1ccccc1CNC(=O)c1ccc2nc(N3CCOCC3)sc2c1,-1,12%,-9%,-0.3,24,-2%,-15%
C/C(=N\O)c1ccccc1C(=O)O,-2,12%,8%,6.2,-2,-32%[inhibitor],-3.3%
COc1cccc(C(=O)NC(=S)Nc2ccc3oc(=O)ccc3c2)c1,-23,-27%,-10%,0.9,-8,-44%[inhibitor],68%

# Fetched by structure from the list above, five records:
SMILES,CtBP-E1A blk,Sfp PPTase inh,gsp antagonist,Menin-MLL FL inh,TRPV1 potentiator,gsp agonist,ClpP mod
Cc1ccccc1CNC(=O)c1ccc2nc(N3CCOCC3)sc2c1,-1,12%,-9%,-0.3,24,-2%,-15%
O=S(=O)(Nc1cccc(-c2nc3cccnc3s2)c1)c1cccs1,?,23%,2%,0.9,6,-26%[15.4 µM],.
CC(=O)c1cccc(N=Nc2c(-c3ccccc3)[nH]n(-c3ccccc3)c2=O)c1,.,?,-1%,0.8,-2,0%[15.4 µM],.
Cc1cc(C(=O)N2CCN(c3ccccc3O)CC2)c(C)o1,3,.,-13%,.,-13,-23%,-1.5%
Cn1c(=O)c2c(ncn2CC(=O)OCC(=O)Nc2ccccc2)n(C)c1=O,7,8%,-2%,1.7,?,?,.
